PABP polyA inh: blocks human PABP binding to poly(A) RNA; P11940; fluorescence polarization; inhibition, % at 35 µM; hit rate 1% among 290,000; AID 2014;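 active = 50% or more with normal probe brightness, or confirmed in later tests; inconclusive = above 50% with abnormal brightness, or retests that disagree; inactive = below 50% or failed in later tests; about a fifth of its hits are not listed in these tables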;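 note: calls also rest on retests at 20 µM and on dose response follow-up; controls were probe without protein and protein plus probe with vehicle; some compounds called inactive have numbers as strong as hits; many hits fall short of the cut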
MT1-MMP act inh: inhibitors of human MT1-MMP activation; HT1080 RFP-PRO-GFP cells, GFP/RFP ratio fluorescence, overnight; percent of plate control window, DMSO zero; GFP/RFP ratio change, % at 20 µM; hit rate 0.061% among 360,000; P50281;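 active = GFP/RFP ratio change of at least 30% with cell ATP level not reduced by more than half and red fluorescence within 50% of control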; note: strong numbers were not always called active
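Assay system: HT1080 RFP-PRO-GFP cells | Dosing: 20 µM single dose, 1% DMSO | Incubation: Cells overnight before dosing, compound overnight, 37 °C, 5% CO2 | Evaluation: GFP/RFP fluorescence ratio | Control set: DMSO-only wells and HT1080 RFP-L50D-GFP cell wells as references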
Yeast UUG start: yeast start codon fidelity modulation; hit rate 0.13% among 350,000; S. cerevisiae UUG-firefly luciferase reporter, luminescence/redox ratio; activity score, % at 18.7 µM;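 active = replicate mean at a twofold rise or more, about +100% in these data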;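 note: firefly luciferase made from a UUG start codon reports start codon fidelity; reporter light over untreated wells divided by growth signal over untreated wells; some hits fall short of that in this replicate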
HIV Env fusion: blocks HIV Env-driven cell-cell fusion; HeLa-JRFL Env/CEM21 cell fusion, luciferase; inhibition, % at 12.3 µM; hit rate 1.1% among 360,000; AID 651610;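 active = mean replicate inhibition score of at least 50 and every replicate individually at or above 50; inconclusive = only one of the two criteria met; inactive = mean below 50 and not all replicates reaching 50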;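 note: 0% = plate neutral controls and 100% = maraviroc near 300 nM; one replicate is shown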
CSC inhib: cancer stem cell inhibition. hit rate 1.1% among 300,000. inhibition, % at 7.5 µM. cancer stem cell-like cells viability, luminescence;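 active = mean at 75% or more and at least half the replicates too; inconclusive = mean and replicates disagree; tested in HMLE shEcad cells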;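 note: 0% = median of negative and 100% = median of positive control wells; the first replicate is given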
eIF4H inh: inhibitors of RNA binding by human eIF4H; eIF4H fluorescence polarization binding assay; hit rate 0.94% among 290,000; inhibition, % at 35 µM;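 active = 50% or more with normal probe brightness, or confirmed in later tests; inconclusive = above 50% with abnormal brightness, or retests that disagree; inactive = below 50% or failed in later tests; about a fifth of its hits are not listed in these tables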;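 note: calls also rest on retests at 20 µM and on dose response follow-up; 0% = protein and probe with vehicle and 100% = probe without protein; strong numbers were not always called active; many hits fall short of the cut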
Rce1 inh: blocks yeast Ras-converting enzyme; yeast membranes, quenched prenylated peptide cleavage fluorescence; calls only; Q03530; hit rate 0.27% among 290,000;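 active = fall in fluorescence gain of 50% or more versus controls, with final raw signal at or below 3038400; inconclusive = same 50% fall but final raw signal above 3038400; inactive = fall in fluorescence gain under 50%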;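 note: plate controls were neutral control wells for no effect and wells lacking membranes for full effect; tested at 10 µM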
Target sequence (Q03530 whole entry, looked up): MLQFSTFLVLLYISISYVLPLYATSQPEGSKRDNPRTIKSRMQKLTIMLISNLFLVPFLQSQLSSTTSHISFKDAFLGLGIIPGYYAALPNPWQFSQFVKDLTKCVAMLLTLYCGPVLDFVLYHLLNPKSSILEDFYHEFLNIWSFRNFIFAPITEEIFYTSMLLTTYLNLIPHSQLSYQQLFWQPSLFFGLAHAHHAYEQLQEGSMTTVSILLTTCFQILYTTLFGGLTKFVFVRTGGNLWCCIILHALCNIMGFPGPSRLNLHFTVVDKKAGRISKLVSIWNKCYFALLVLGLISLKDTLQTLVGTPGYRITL
eIF4H inh retest: also measured in eIF4H inh; calls as there; inhibition, %; compound at 20 µM; confirmation average;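 mean of two retest wells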
PABP polyA inh retest: recorded beside PABP polyA inh, whose call it bears; inhibition, %; compound at 20 µM; confirmation repeats;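 mean of two retest wells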
MT1-MMP act inh RFP: recorded beside MT1-MMP act inh, whose call it bears; RFP signal change, %; measured here: RFP expression control read;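 0 = vehicle wells; hits needed this value within 50% of zero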
Starred values were filed as active, the others as inactive; i = inactive; ? = inconclusive; · = not tested or not shown; & = joins results of further samples; [ ] = dose if it differs, or a comment.

SMILES	PABP polyA inh	MT1-MMP act inh	MT1-MMP act inh RFP	Yeast UUG start	HIV Env fusion	CSC inhib	eIF4H inh	Rce1 inh	others
NC(=O)C1CCN(c2ncccc2[N+](=O)[O-])CC1	-9	1	6	-10	1	-9	3	i
O=C(Cn1c(=S)[nH]c2ccccc2c1=O)N1CCc2ccccc2C1	-2	2	4	-16	-8	·	-1	i
CCSc1nsc(NC(=O)Nc2cccc(C(C)=O)c2)n1	5	-4	-35	10	37	44	-5	i
CCN(CC)c1ccc(/C=N/NC(=O)c2cccc(S(=O)(=O)Nc3ccccc3OC)c2)c(O)c1	-6	-3	-11	·	1	108*	2	i
COc1ccc(C(=O)N[C@H](C(=O)OCc2nc3ccsc3c(=O)[nH]2)C(C)C)cc1	·	-7	-2	·	-6	-10	·	i
O=C(CN1C(=O)NC2(CCCc3ccccc32)C1=O)c1ccc(F)c(F)c1 (configuration not stated)	·	0	-1	·	-13	-8	·	·
O=S(=O)(O)c1cc(O)c2ccc(Nc3ccccc3)cc2c1	·	-3	0	6	-63	·	·	·
COc1cc(CNCc2ccccc2)ccc1OCC(O)c1ccccc1 (configuration not stated)	2	3	5	11	-7	-5	9	i
COCCNC(=O)C(c1cccs1)N(C(=O)Cn1nnc2ccccc21)c1ccccc1 (configuration not stated)	0	-2	1	0	-125	-5	6	i
O=C(Nc1ccc(C(F)(F)F)cc1)C1CCN(S(=O)(=O)c2ccc(N3CCCC3=O)cc2)CC1	-8	-6	-25	5	5	5	-15	i
Cc1nnc(N(C)C(=O)Cc2ccc3c(c2)OCO3)s1	-10	2	2	-16	·	-7	5	i
Cc1ccc(C2C=C(c3ccccc3)Nc3ncnn32)cc1 (configuration not stated)	·	-13	1	-26	-6	4	·	i
Cc1ccc(S(=O)(=O)Nc2ccc(NC(=O)/C=C/C(=O)O)cc2)cc1	-12	7	4	-8	-12	2	11	i
Cn1c(=O)c2c(nc(CN3CCN(C(=O)c4ccco4)CC3)n2Cc2ccc(Cl)cc2)n(C)c1=O	-3	0	0	2	-137	-7	-3	i
Cc1cccc(C)c1N(CC(=O)NCc1ccccc1)C(=O)c1csnn1	0	-7	-2	-14	6	-7	-12	·
O=C(NCc1ccc(Cl)cc1)c1ccc(N2CCCC2=O)cc1	-7	5	2	7	7	-14	0	i
COc1cc(C)c(Cl)cc1S(=O)(=O)NC1CC(C)(C)NC(C)(C)C1	6	·	·	·	·	-17	-3	i
C[C@H](CO)N1C[C@H](C)[C@H](CN(C)C(=O)NC2CCCCC2)Oc2cc(-c3cccnc3)ccc2S1(=O)=O	·	2	2	-19&2&4	-33&-6[16.7 µM]	·	·	·
COc1ccc(NC(=O)COC(=O)C2COc3ccccc3O2)cc1 (configuration not stated)	·	4	7	-11	11	·	·	·
CCC1(NC(C)=O)CC2CC1CC2NC(C)=O (configuration not stated)	-6	-4	-3	·	-36	-2	0	i

Of the compounds above, 2 contain fluorine:
SMILES	PABP polyA inh	MT1-MMP act inh	MT1-MMP act inh RFP	Yeast UUG start	HIV Env fusion	CSC inhib	eIF4H inh	Rce1 inh	others
O=C(CN1C(=O)NC2(CCCc3ccccc32)C1=O)c1ccc(F)c(F)c1 (configuration not stated)	·	0	-1	·	-13	-8	·	·
O=C(Nc1ccc(C(F)(F)F)cc1)C1CCN(S(=O)(=O)c2ccc(N3CCCC3=O)cc2)CC1	-8	-6	-25	5	5	5	-15	i

(listing goes on)
SMILES	PABP polyA inh	MT1-MMP act inh	MT1-MMP act inh RFP	Yeast UUG start	HIV Env fusion	CSC inhib	eIF4H inh	Rce1 inh	others
COc1ccccc1CCNC(=O)CSc1nc(-c2ccco2)cc(C(F)(F)F)n1	6	-9	-4	-5	59*	7	-4	i
Cc1ccc(-c2nc(CS(=O)(=O)CC(=O)NCCCN3CCOCC3)c(C)o2)cc1	13	5	2	-8	-9	-8	-8	i
COc1ccc(CC(=O)Nc2ccc(F)c(Cl)c2)cc1S(=O)(=O)N1CCOCC1	·	3	-4	-14	0	-11	·	·
c1ccc2nc(-c3nc4ccccc4o3)ccc2c1	5	-10	4	-46	-91	30	9	i
CC(C)c1ccc(C2CC(=O)c3cnc(N4CCc5ccccc5C4)nc3C2)cc1 (configuration not stated)	-6	-5	0	-10	13	56	4	i
CCN(CC)CCN1C(=O)C(=O)/C(=C(/O)c2ccc(S(=O)(=O)N3CCOCC3)cc2)C1c1ccc(C(C)(C)C)cc1 (configuration not stated)	0	-1	2	5	·	4	5	i
CCN(CC)S(=O)(=O)c1ccc(C(=O)OCC(=O)N2CCOCC2)cc1	0	1	6	-1	-7	-4	-7	i
CCOC(=O)[C@H]1[C@H]2COc3ccc(OC)cc3[C@@H]2N2C(=O)c3ccc(C)cc3NC(=O)[C@@]12C	·	8	3	-13	-6	7	·	·
CC1(OC(=O)CCc2ccccc2)C(=O)C=C2C=C3CCCN3C=C2C1=O (configuration not stated)	55*	1	4	-12	-5	-14	83*	i
O=C(c1cccnc1Cl)N(Cc1ccccc1)Cc1ccccc1	7	-1	-2	·	16	3	-3	i
CC/C(=N\Nc1ccccc1[N+](=O)[O-])c1ccc(O)cc1	19	15	-5	·	-7	-16	-5	i
CC1CCCN(C(=O)N2c3ccccc3Sc3ccccc32)C1 (configuration not stated)	-8	-18	-9	·	·	-3	-3	i
CCC(C)C(=O)Nn1c(C2CC2)nc2cc(OC)c(OC)cc2c1=O (configuration not stated)	-8	0	0	·	6	·	-2	i
CCC(=O)Nc1ccc(C(=O)Nc2ccc3c(c2)C(=O)N(CC2CCCO2)C3=O)cc1 (configuration not stated)	-7	2	-7	7	·	-12	4	i
CC(C)CN(C(=O)COc1ccc2ccc(=O)oc2c1)C1CCS(=O)(=O)C1 (configuration not stated)	5	-3	2	-5	0	-9	10	i
COc1ccccc1S(=O)Cc1ccc(C(=O)NC2CCCC2)o1 (configuration not stated)	-9	-3	3	-15	-6	-16	7	i
O=C(CCC(=O)N(CC(=O)NC1CCCCC1)c1ccc2c(c1)OCCO2)Nc1ccccn1	5	·	·	·	·	-13	4	i
O=C(NCCC(=O)N1CCc2ccccc21)c1ccco1	-3	1	2	-4	-91	-2	-4	i
Cc1ccc(C)c(NC(=O)CCC(=O)NNC(=O)c2cccc([N+](=O)[O-])c2)c1	-12	-7	-4	-12	14	7	-9	i
Cc1cc2[nH]c3ccccc3c2c(C)n1	0	-11	-7	·	-18	-1	0	i
COc1ccc(/C=C/c2nnc(NC(=O)c3ccco3)s2)cc1	3	0	1	-14	-23	0	-2	i
O=c1c(-c2nnc(SCc3ccc(Cl)cc3Cl)o2)cccn1Cc1ccccc1	-1	2	-10	-19	-38	4	0	i
O=C(/C=C/c1ccccc1)NC(=S)NNC(=O)c1cnccn1	8	15	-5	-46	15	87*	14	i
O=C(Cn1nnc(-c2ccc(S(=O)(=O)N3CCCC3)cc2)n1)NCC1CCCO1 (configuration not stated)	-1	0	3	-20	-52	·	-5	i
OC(COc1ccccc1)CN1CCCCC1 (configuration not stated)	·	-2	0	-16	4	·	·	·
COc1ccc(C2c3[nH]c4ccccc4c3CCN2Cc2ccoc2)c(F)c1 (configuration not stated)	-1	1	4	·	-6	15	-2	i
O=C(C1CCCC1)N1CCC(CC2CC(c3ccc(Cl)cc3)=NO2)(C(=O)NCC2CCCCC2)CC1 (configuration not stated)	10	1	0	-13	16	0	-2	i
CCN(CC)S(=O)(=O)c1ccc(NC(=O)C2COc3ccccc3O2)cc1 (configuration not stated)	-9	4	0	-4	·	1	-7	i
N#C/C(=C\c1ccc(Cl)cc1)c1nc(-c2ccco2)cs1	-6	0	-4	·	2	5	18	i
CCN(C[C@H]1N[C@@](Cc2ccccc2)(C(=O)OC)[C@H]2C(=O)N(C)C(=O)[C@@H]12)S(=O)(=O)c1ccccc1	·	-1	0	5	-25	·	·	·
O=C(O)C(Cc1ccccc1)N1C(=O)C2CCCCC2C1=O (configuration not stated)	0	-1	6	·	10	8	-10	i
O=C(CSc1ncccn1)N1CCc2ccccc2C1	-1	0	3	-4	-10	9	88	i	eIF4H inh retest=-4;PABP polyA inh retest=4
CCOC(=O)c1sc(NC(=O)/C=C/c2ccccc2)nc1C	115	4	2	·	-2	-15	11*	i	eIF4H inh retest=82*;PABP polyA inh retest=42
Cc1ccc(N2CC(C(=O)Nc3cc(S(=O)(=O)N4CCCCC4)ccc3C)CC2=O)cc1 (configuration not stated)	·	1	-13	-1	15	·	·	·
COc1cccc(-c2cc(C(F)(F)F)n3nc(N)nc3n2)c1	-9	0	1	-1	·	-6	-12	i
O=C(c1ccco1)N1CCN(C(=O)C(c2ccccc2)c2ccccc2)CC1	-2	-1	-1	-1	-45	·	-5	·
COc1cc(OC)cc(C(=O)Nc2nc(CC(=O)NCc3ccc(F)cc3)cs2)c1	·	-4	-7	-11	48	46	·	i
COc1cc(NC(=O)Nc2cccc([N+](=O)[O-])c2)cc(OC)c1	11	4	-7	·	0	17	1	·
COc1ccc(N=C2CC(C)(C)CC(=O)/C2=C(/O)c2ccccc2)cc1	-1	0	2	·	5	-3	5	i
Cc1ccccc1-c1nnn(CC(=O)c2ccc(S(=O)(=O)N3CCCC3)cc2)n1	2	4	-3	-9	7	23	-6	i
COc1cc(OC)cc(OC(=O)C2CCN(C(=O)c3ccc(F)cc3)CC2)c1	·	4	4	·	-18	-2	·	i
COc1ccc(NC(=O)Cn2nnc3sc4c(c3c2=O)CC(C)(C)OC4)cc1	2	-1	-3	·	7	2	4	i
Cn1ncc([N+](=O)[O-])c1C(=O)N/N=C/c1ccc(F)cc1	11	-1	3	7	·	3	-8	i
Cc1ccccc1CN1CCN(c2nc3ccccc3s2)CC1	3	-6	-15	-7	-34	8	-11	i
COC(=O)c1nc(NC(=O)c2cc(OC)c(OC)c(OC)c2)n[nH]1	-5	-2	0	-1	-2	1	1	i
O=C(O)C1CC(c2cccc(Br)c2)=NO1 (configuration not stated)	7	2	3	-22	-46	-8	-6	i
O=C(c1cc(-c2cccc(O)c2)on1)N1CCN(C(c2ccccc2)c2ccccc2)CC1	-11	-11	-17	-18	-7	144*	-10	i
CC(C)(C)c1nc2ccc(NS(=O)(=O)c3ccc(F)c(F)c3F)cc2[nH]1	-5	0	-1	-10	-2	-16	-3	i
COCCNC(=O)C1(C)CCCN(C(=O)c2cccc(C#N)c2)C1 (configuration not stated)	·	1	7	-2	6	·	·	·
O=C(Cn1nc(-c2ccccc2)ccc1=O)Nc1ccc(N2CCN(C(=O)c3ccccc3)CC2)cc1	-1	3	-3	·	·	-23	-4	i

Continued.
SMILES	PABP polyA inh	MT1-MMP act inh	MT1-MMP act inh RFP	Yeast UUG start	HIV Env fusion	CSC inhib	eIF4H inh	Rce1 inh	others
COc1ccc(N2CCN(C3CCCN(S(=O)(=O)c4ccccc4)C3)CC2)cc1 (configuration not stated)	-5	1	-5	-8	9	7	-10	i
Cc1cc(C)cc(NC(=O)c2ccc(S(=O)(=O)NCc3cccnc3)cc2)c1	-4	5	0	-14	1	-14	1	i
Cc1cccc(OCc2nnc(SCc3nc4ccccc4c(=O)[nH]3)o2)c1	4	-2	-1	1	·	15	-6	i
CCN1C(=O)/C(=C/N2CCc3ccccc32)SC1=S	?	2	5	-21	·	-6	?	i
COc1ccc(NC(=O)CCc2nnc3ccc(NCc4ccc5c(c4)OCO5)nn23)cc1	-15	0	0	-19	2	-5	-24	i
O=c1[nH]c(=S)n(-c2cccc(Cl)c2)c(O)c1/C=N/N1CCOCC1	-18	-5	-2	-16	4	-5	-5	i

This is a subset, so the mix of outcomes need not match the whole.
